# HCMV UL50-53 inh = cytomegalovirus nuclear egress complex inhibition; HTRF UL50-UL53 interaction, normalized percent inhibition; actives 0.15% (n = 190,000); inhibition, % (concentration not given with the values);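 active means both replicates at 50% or more, plus weaker picks with an unusually low signal ratio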;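 further: stock transfer was 100 nL into about 20 µL; 0% = negative control wells and 100% = wells with untagged competitor protein; inactives centre near -12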
# Sa growth inh = blocks Staphylococcus aureus growth; S. aureus RN4220 growth, OD600, 20 h, 42 °C; stronger effect = lower value; relative growth, % (test concentration not listed); actives 0.53% (n = 170,000); AID 720641;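 active means growth at 42 °C up to 50% and 20 or more points under that at 30 °C, or under 10% at both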;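 further: 300 nL library stock went into each well; scaled to the means of positive and negative controls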
# GIV-Gai inh = GIV-Galpha-i interaction inhibition; AID 1224905; Galpha-i3/FITC-GIV peptide fluorescence polarization, 90 min; stronger effect = lower value; scaled: aluminum fluoride 0%, vehicle 100%; P08753; percent of control (FP), % (test concentration not listed); actives 0.42% (n = 210,000);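 active means replicate mean at 85% of control or lower, very high polarization wells dropped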;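 further: wells of about 15 µL received 100 nL stock; the first replicate is given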
# Target sequence (P08753 whole entry, looked up): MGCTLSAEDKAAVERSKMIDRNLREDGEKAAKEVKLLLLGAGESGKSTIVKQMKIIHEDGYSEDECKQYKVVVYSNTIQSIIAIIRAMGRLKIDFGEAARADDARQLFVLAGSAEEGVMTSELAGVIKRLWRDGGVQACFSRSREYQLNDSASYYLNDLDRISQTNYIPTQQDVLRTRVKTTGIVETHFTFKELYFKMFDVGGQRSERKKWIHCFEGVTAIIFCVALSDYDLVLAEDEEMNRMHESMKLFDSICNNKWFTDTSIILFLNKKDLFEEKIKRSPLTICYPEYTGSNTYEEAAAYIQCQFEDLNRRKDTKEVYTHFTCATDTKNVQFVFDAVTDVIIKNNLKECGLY
# Sa growth inh second temp = recorded beside Sa growth inh, whose call it bears; relative growth, %; measured here: growth at 30 °C;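 optical density after 20 h as mean of two plates; 100% = untreated growth and lower means inhibition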
# * = called active by the depositor; . = not tested or not shown; & = joins results of further samples.
1) CCc1nnc(NC(=O)CSc2nnc(Cc3c(C)nc4c(C)cccn4c3=O)n2C)s1
2) CCN(CC)c1ccc(NC(=O)CSc2nnc(C)c(=O)[nH]2)cc1
3) COc1ccc(-c2cc(C(N)=O)c3ccccc3n2)cc1
4) O=C(Nc1ccc(F)cc1F)c1cc(-c2ccncc2)n[nH]1
5) Cc1cc2[nH]c(=O)c(=O)[nH]c2cc1S(=O)(=O)N1CCN(c2cccc(C)c2C)CC1
6) CSc1cccc(Nc2cc(C(=O)NCCCN(Cc3ccccc3)C(C)C)c3ccccc3n2)c1

Compound	1	2	3	4	5	6
HCMV UL50-53 inh	-15	6	.	3	.	.
Sa growth inh	.	100	89	.	135	147
Sa growth inh second temp	.	93	88	.	115	53
GIV-Gai inh	108	104	104	104	103	103

7) CC(C)C(NS(=O)(=O)c1cccc2nsnc12)C(=O)NCc1ccco1 (centres undefined)
8) O=C(NCC(c1ccco1)N1CCCCC1)c1ccc2c(=O)n3c(nc2c1)CCCCC3 (centres undefined)
9) NC(=O)c1c(NC(=O)CCN2C(=O)c3cccc([N+](=O)[O-])c3C2=O)sc2c1CCCC2
10) CCCCn1c(=O)n(-c2cc(OC)ccc2OC)c(=O)c2c3c(sc21)CN(C(C)=O)CC3
11) Cc1cc(C)cc(OCC(=O)Nc2nonc2-c2ccc(Br)cc2)c1
12) CCOC(=O)c1c(/N=C/C2=C(O)CC(c3cccs3)CC2=O)sc(C)c1C (centres undefined)

Compound	7	8	9	10	11	12
HCMV UL50-53 inh	.	-11	-36	11	5	6
Sa growth inh	77	64	.	84	102	125
Sa growth inh second temp	93	90	.	80	94	97
GIV-Gai inh	108	.	104	105	109	100

13) O=c1oc2ccc3ccccc3c2cc1-c1nnc(Nc2cc(C(F)(F)F)ccc2Cl)s1
14) Cc1c(C(=O)OCc2cc(=O)n3ccsc3n2)sc2nc3n(c(=O)c12)CCC3
15) Cc1cccc(-c2nc(CCNC(=O)c3cccs3)cs2)c1
16) Cc1ccc(NC2SC(=O)NC2=O)c(C)c1 (centres undefined)
17) O=C(CN(C(=O)c1csnn1)c1cccc(F)c1)NC1CCCC1
18) O=S(=O)(c1ccc(C2CCCCC2)cc1)N1CCn2c(nc3ccccc32)C1

Compound	13	14	15	16	17	18
HCMV UL50-53 inh	.	-44	-36	-2	-1	.
Sa growth inh	110	60	82	96	99	91
Sa growth inh second temp	83	64	74	90	91	93
GIV-Gai inh	101	.	104	107	105	106

19) CCOc1ccc2c(c1)cc(C(=O)NC(C)C)n2C
20) COc1ccc2c(c1)Cc1sc(NC(=O)c3cccc(F)c3)nc1-2
21) COc1ccc(-c2nnc(SC3CCOC3=O)o2)cc1 (centres undefined)
22) Clc1nc(Cl)nc(NCc2ccccc2)n1
23) CC(C)(C)C(=O)/C(C#N)=C/c1cccs1
24) C[N+]1(Cc2nc3ccccc3[nH]2)CCOCC1

Compound	19	20	21	22	23	24
HCMV UL50-53 inh	-3	16	.	2	-88	-17
Sa growth inh	.	102	93	97	83	105
Sa growth inh second temp	.	92	86	100	86	82
GIV-Gai inh	95	106	100	104	103	.

# Six compounds drawn at random from those above, as already listed:
8) O=C(NCC(c1ccco1)N1CCCCC1)c1ccc2c(=O)n3c(nc2c1)CCCCC3 (centres undefined)
23) CC(C)(C)C(=O)/C(C#N)=C/c1cccs1
18) O=S(=O)(c1ccc(C2CCCCC2)cc1)N1CCn2c(nc3ccccc32)C1
3) COc1ccc(-c2cc(C(N)=O)c3ccccc3n2)cc1
20) COc1ccc2c(c1)Cc1sc(NC(=O)c3cccc(F)c3)nc1-2
6) CSc1cccc(Nc2cc(C(=O)NCCCN(Cc3ccccc3)C(C)C)c3ccccc3n2)c1

Compound	8	23	18	3	20	6
HCMV UL50-53 inh	-11	-88	.	.	16	.
Sa growth inh	64	83	91	89	102	147
Sa growth inh second temp	90	86	93	88	92	53
GIV-Gai inh	.	103	106	104	106	103

# Additional results:
25) CCCCn1nc(C(=O)Nc2ccccc2C(C)C)ccc1=O
26) Cc1ccc(Cl)cc1N1CCN(S(=O)(=O)c2ccc3c(c2)CCCN3C(=O)C2CCC2)CC1
27) CC(OC(=O)c1cccn1C)C(=O)Nc1ccc(S(=O)(=O)N2CCCC2)cc1 (centres undefined)
28) C=CCNc1ncnc2c1c(-c1ccccc1)cn2-c1cccc(C)c1
29) O=C(NCc1ccccc1)c1c[nH]c2ccc(S(=O)(=O)N3CCC4(CC3)OCCO4)cc2c1=O
30) CSc1cc(C(F)(F)F)c(C(=O)Nc2cccc(C)c2C)cn1

Compound	25	26	27	28	29	30
HCMV UL50-53 inh	-10	.	-14	.	2	-5
Sa growth inh	102	89	90	102	89	119
Sa growth inh second temp	108	93	83	88	89	98
GIV-Gai inh	.	112	.	103	104	100

31) CC(C)c1nnc(NC(=O)CC(NC(=O)c2ccccc2)c2ccccc2)s1 (centres undefined)
32) Cc1ccc(CNC(=O)C2CCCN(C(=O)c3nnc(C(=O)Nc4ccc(F)cc4)s3)C2)cc1 (centres undefined)
33) Cc1cc(Nc2cccc(C(F)(F)F)c2)nc2ccc(NC(=O)c3ccc(N(C)C)cc3)cc12
34) CCc1ccc2oc(-c3cccc(NC(=O)C(C)(C)Oc4ccc(Br)cc4)c3)nc2c1
35) O=C(CSc1ccccc1)CSc1ccccc1
36) CC/C(Cc1ccccc1)=N\NC(=O)c1cccnc1

Compound	31	32	33	34	35	36
HCMV UL50-53 inh	.	-19	-5	-30	3	-22
Sa growth inh	95	.	83	89	.	104
Sa growth inh second temp	76	.	89	89	.	90
GIV-Gai inh	99	104	108	105	111	.

37) Cc1cc(C)cc(NC(=O)CN2C=NS(=O)(=O)c3ccccc32)c1
38) COC(=O)c1cn(NC(=O)/C(C)=C/c2ccccc2)c(=O)c2ccccc12
39) CCOC(=O)c1ccc(NS(=O)C23CC4CC(CC(C4)C2)C3)cc1 (centres undefined)
40) C(=Nc1ccccc1)c1ccccc1
41) CCCC(=O)N1c2ncnn2C2(CCCCC2)[C@@H]2CCCC[C@@H]21
42) O=C1OC(c2ccc(Br)o2)=N/C1=C/c1ccco1

Compound	37	38	39	40	41	42
HCMV UL50-53 inh	.	.	-3	-45	-15	-4
Sa growth inh	75	94	94	87	100	91
Sa growth inh second temp	71	87	97	86	90	113
GIV-Gai inh	101&97	105	.	102	98	87

43) COC(CNC(=O)c1cc2c(s1)-c1ccccc1OC2)OC
44) CC1=C/C(=N\Nc2nncc3ccccc23)CC1
45) O=C(Cc1ccccc1)NCCN1CCOCC1
46) Cc1cc(C)c(NC(=O)CSc2nc3ccccc3nc2N2CCCCC2)c(C)c1
47) O=C(CSc1ccccc1)Nc1ccc(NC(=O)c2ccco2)cc1
48) O=C(Nc1cnc2ccccn2c1=O)c1ccccc1Cl

Compound	43	44	45	46	47	48
HCMV UL50-53 inh	.	-41	6	-44	-12	-89
Sa growth inh	86	140	72	97	91	.
Sa growth inh second temp	60	87	117	93	69	.
GIV-Gai inh	95	.	.	107	99	102

49) Cc1ccc2nc(-c3nc4ccccc4s3)sc2c1
50) CCC(C)NC(=O)CCCOc1cc(=O)n(C)c2ccccc12 (centres undefined)
51) O=C(CSC1=NC(=O)C(Cc2ccccc2)C(=O)N1)NC1CCCCC1 (centres undefined)
52) O=C(O)CSCC(=O)N1CCN(c2nc3cc(Cl)ccc3s2)CC1
53) COCCNC(=O)CCn1c(=O)c2cc(OC)c(OC)cc2n(CC(=O)Nc2ccccc2OC)c1=O
54) O=C(CC1OC(=O)c2ccccc21)NC1CC1 (centres undefined)

Compound	49	50	51	52	53	54
HCMV UL50-53 inh	-22	6	-4	-1	9	6
Sa growth inh	66	.	.	100	104	86
Sa growth inh second temp	63	.	.	94	93	92
GIV-Gai inh	101	101	105	103	101	.

55) CCCCC/C=C/CCC(=O)N[C@H]1[C@H](Oc2c3cc4cc2Oc2ccc(cc2Cl)[C@@H](O[C@@H]2O[C@H](CO)[C@@H](O)[C@H](O)[C@H]2NC(C)=O)[C@@H]2NC(=O)[C@H](NC(=O)[C@@H]4NC(=O)[C@H]4NC(=O)C(Cc5ccc(c(Cl)c5)O3)NC(=O)[C@H](N)c3ccc(O)c(c3)Oc3cc(O)cc4c3)c3ccc(O)c(c3)-c3c(OC4O[C@H](CO)[C@@H](O)[C@H](O)[C@@H]4O)cc(O)cc3[C@@H](C(=O)O)NC2=O)O[C@H](CO)[C@@H](O)[C@@H]1O (some centres undefined)
56) Cc1c(C(=O)N2CCOCC2)oc2c1-c1nn(CC(=O)NCc3ccccc3)cc1CC2
57) O=C(CSc1nnc(CNC(=O)c2ccccc2)o1)c1ccccc1
58) Cc1ccc(CSc2ncn(-c3ccccc3)n2)cc1
59) CN(C)S(=O)(=O)c1ccc(SCC(=O)NN2C(=O)NC3(CCCCC3)C2=O)nc1
60) CC(C)C(=O)Nc1nc2c(s1)CC(C(C)(C)C)CC2 (centres undefined)

Compound	55	56	57	58	59	60
HCMV UL50-53 inh	-15	.	-12	2	-35	13
Sa growth inh	-0.1*	130	94	75	77	91
Sa growth inh second temp	-1.0*	98	87	88	85	62
GIV-Gai inh	.	104	110	107	.	102

61) O=C(CN1C(=O)CCc2cc(S(=O)(=O)N3CCCC3)ccc21)Nc1nccs1
62) COc1ccc(S(=O)(=O)N2CCOCC2)cc1-c1noc(C(C)(C)C)n1
63) CCCC1(CCC)NC(=O)NC1=O
64) O=S(=O)(c1ccc(OC(F)(F)F)cc1)N1CCNCC1
65) Cc1nc(Nc2ccc(NS(=O)(=O)c3ccc(F)cc3F)cc2)cc(N2CCCC2)n1
66) NC(=O)CS(=O)(=O)c1cn(CC(=O)N2CCOCC2)c2ccccc12

Compound	61	62	63	64	65	66
HCMV UL50-53 inh	-13	-15	5	.	-38	-53
Sa growth inh	.	.	110	79	.	82
Sa growth inh second temp	.	.	98	86	.	90
GIV-Gai inh	106	103	.	101	95	102

67) Cc1cccc2sc(NC(=O)c3nc4ccccc4nc3Cl)nc12
68) Cc1ccc(S(=O)(=O)CCC(=O)OCc2c(C)noc2C)cc1
69) CCSc1nc2c(c(=O)n1-c1cc(C)cc(C)c1)SCC2
70) COc1ccc2c(c1)c1c(c(=O)n(-c3cccc(C)c3)c(=O)n1CC(=O)Nc1c(C)cc(C)cc1C)n2C
71) Cc1sc2ncn(C(C)C(=O)OC3CCCCC3)c(=O)c2c1C (centres undefined)
72) COC(=O)c1ccc(-c2ccc(/C=N/NC(=O)CC3(C)OCCCO3)o2)cc1

Compound	67	68	69	70	71	72
HCMV UL50-53 inh	-28	-26	7	-17	1	-125
Sa growth inh	.	77	110	95	100	87
Sa growth inh second temp	.	86	102	105	88	92
GIV-Gai inh	101	.	102	102	103	94

73) Cc1ccc(-n2nc(N3CCN(C(=O)c4cc5cc(Cl)ccc5[nH]4)CC3)ccc2=O)cc1
74) CC(Cc1ccccc1)N/C=C1/CC(=O)NC1=O (centres undefined)
75) O=C(COC(=O)c1ccc2c(c1)OCO2)c1ccccc1
76) CCOc1ccccc1NC(=O)N1CCOc2ccc(C)cc21
77) O=C(O)CCC(=O)Nc1ccc(-c2nc3ccc(NC(=O)CCC(=O)O)cc3[nH]2)cc1
78) O=C(OCc1nc2ccccc2[nH]1)C12CC3CC(CC(C3)C1)C2

Compound	73	74	75	76	77	78
HCMV UL50-53 inh	-30	.	-22	.	-8	.
Sa growth inh	.	106	101	92	101	112
Sa growth inh second temp	.	87	88	89	83	95
GIV-Gai inh	103	102	.	107	108	100

79) CC(=O)Nc1sc2c(c1C(=O)O)CCC2
80) CC(C)NC(=O)c1cc2n(n1)C(C(F)(F)F)CC(c1cccs1)N2 (centres undefined)
81) CC1Sc2ccc(C(=O)Oc3ccc4c(c3)OCO4)cc2NC1=O (centres undefined)
82) C/C(=N\N)c1c(-c2ccccc2)c2cc(C)ccc2[nH]c1=O
83) CCNC(=O)N1CCc2cc(S(=O)(=O)NC3CCCC3)ccc21
84) Cc1ccccc1CN1C(=O)C2(c3ccccc31)N(c1ccccc1)C(=O)CS2(=O)=O (centres undefined)

Compound	79	80	81	82	83	84
HCMV UL50-53 inh	-3	.	-5	.	-12	.
Sa growth inh	138	93	106	112	.	117
Sa growth inh second temp	89	87	88	86	.	103
GIV-Gai inh	.	108	.	112	102	108

85) COc1ccccc1C(=O)Nc1ccccc1N1CCN(C(C)=O)CC1
86) Cc1cc(N(C(=O)c2ccc3c(=O)n4c(nc3c2)CCCCC4)C(=O)c2ccc3nc4n(c(=O)c3c2)CCCCC4)no1
87) O=C(NC1CCCCC1)c1cnc2sc3c(n2c1=O)CCC3
88) CCOC(=O)c1ccc(Oc2nc(NC(C)(C)C)nc(N(C)C)n2)cc1
89) O=C(C1CCN(c2ccc(-c3cccc(F)c3)nn2)CC1)N1CCCC1
90) CCNC(=O)c1ccc(OC)c(OC)c1

Compound	85	86	87	88	89	90
HCMV UL50-53 inh	13	-21	-21	.	-16	16
Sa growth inh	91	107	.	106	.	100
Sa growth inh second temp	97	88	.	91	.	110
GIV-Gai inh	106	.	108	99	102	101

91) Cc1ccc(-n2nc(-c3ccccc3)c3c(C)cc(=O)[nH]c32)cc1
92) O=C1NC(c2cccs2)Nc2ccccc21 (centres undefined)
93) O=C(Nc1cc(Cl)ccc1O)c1cc(-c2ccc(Cl)cc2)on1
94) COc1ccc(C(=O)Nc2cccc(S(C)(=O)=O)c2)cc1

Compound	91	92	93	94
HCMV UL50-53 inh	-15	14	21	-37
Sa growth inh	.	107	.	83
Sa growth inh second temp	.	103	.	95
GIV-Gai inh	106	107	100	94
